Screens (PubChem BioAssay)
ugtP null kill – growth inhibition of ugtP-null S. aureus, primary screen, RN4220 ugtP deletion, OD600 | 16 h; some inactives read as strong as hits | growth inhibition, % (concentration not given with the values) | 330,000 compounds, 0.54% hits;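 active = z-score under -3 and OD600 up to 0.15 on both plates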;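 also: plate controls were untreated wells for no effect and antibiotic for full effect; wells of about 80 µL received 100 nL stock; the first replicate is given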
PrP 5UTR inh – inhibition of PrP 5' UTR reporter expression. cell-based PrP 5' UTR mRNA reporter, plate reader. inhibition, % (concentration not given with the values). 340,000 compounds, 0.35% hits;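 active = every replicate at 50% or more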;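 also: 0 = median of the neutral control wells; tested in H4 reporter cells; numbers are from one replicate; inactives centre near -14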
BJeLR viability – MLPCN primary cell-based screen for lethality selective to Ras in HRASV12 cells; BJeLR (HRASV12) viability, CellTiter-Glo ATP luminescence, 48 h; reference of the scale not given here; inhibition, % (test concentration not listed); 300,000 compounds, 0.17% hits; AID 1554, 2009;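 active = replicate mean above 50%; inconclusive = above 50% but judged a plate artefact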;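 also: 50 nL library stock added to about 25 µL; numbers are from one replicate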
Mtb hypoxia rep – PubChem AID 1159583. M. tuberculosis hypoxia-regulated fluorescent reporter, fluorescence. fluorescence inhibition, % (concentration not given with the values). 300,000 compounds, 0.1% hits;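 active = 35 to 45% if threefold the growth effect, above 45% if 1.5-fold the growth effect; inactive = the rest, general growth blockers included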;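 also: wells of about 50 µL received 100 nL stock; 0% = vehicle wells and 100% = reference inhibitor wells; whole bacteria with a GFP reporter of the hypoxia response; strong numbers were not always called active; many hits fall short of the cut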
Bead autofluor – flagged as autofluorescent in microsphere protease counterscreen; compound autofluorescence counterscreen, microsphere flow cytometry; stronger effect = higher value; fluorescence intensity (no concentration beside the values); 360,000 compounds, 3.1% hits; AID 624483;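 active = at least 3 SD above the mean of all compounds, about 16000 in these data; inconclusive = too few beads counted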;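 also: 100 nL of 1 mM stock went into each well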
RN4220 kill – growth inhibition of S. aureus RN4220, primary screen, OD600; 16 h; inhibition, % (concentration not given with the values); 330,000 compounds, 0.33% hits; AID 1259311, 2017;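 active = z-score of -3 or lower and OD600 up to 0.18 on both plates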;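 also: plate controls were untreated cells for no effect and reference antibiotic for full effect; stock transfer was 100 nL into about 80 µL; one replicate is shown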
Mtb hypoxia rep growth – second read-out of Mtb hypoxia rep, no call of its own (marks repeat the call); growth inhibition, %; measured here: M. tuberculosis growth (absorbance);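 0% = vehicle and 100% = reference antibiotic; read after six days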
Starred values were filed as active, the others as inactive; ? = inconclusive; . = no result given.

mol	ugtP null kill	PrP 5UTR inh	BJeLR viability	Mtb hypoxia rep	Mtb hypoxia rep growth	Bead autofluor	RN4220 kill
Cc1ccc(C(C(=O)NC2CCCCC2)N(Cc2ccccc2)C(=O)Cc2c[nH]c3ccccc23)o1 (stereo not drawn)	5	-20	0	1	-2	2243	15
CC(C)N(CCc1ccncc1)C(=O)Nc1ccc(Cl)c(Cl)c1	-4	3	-2	5	10	5127	-0.8
Cn1nc(C(=O)NNC(=O)c2ccc(Cl)cc2)ccc1=O	11	-22	5	0	0	?	5.0
CCN(CC(=O)Nc1ccc(OC)c(OC)c1)CC(=O)Nc1ccccc1C(F)(F)F	13	-27	4	5	4	3270	0.3
COc1ccc(OC)c(NC(=O)c2ccc3c(c2)OCO3)c1	9	2	-11	3	9	3482	7.3
Cc1noc(C)c1S(=O)(=O)Nc1ccc2c(c1)C(=O)N([C@H](C)CO)C[C@H](C)[C@@H](CN(C)S(=O)(=O)c1ccc(F)cc1)O2	-5	-1	.	-3	11	4089	-11
COC(=O)COc1cccc2c(=O)n(CC(=O)NCc3ccc(F)cc3)ccc12	6	-40	23	-3	11	4258	12
Cc1ccc(S(=O)(=O)N2CCN(Cc3ccccc3)CC2)cc1	1	-5	4	-3	2	3845	0.6

Next compounds follow:
mol	ugtP null kill	PrP 5UTR inh	BJeLR viability	Mtb hypoxia rep	Mtb hypoxia rep growth	Bead autofluor	RN4220 kill
NC(=O)c1cccc(S(=O)(=O)N2CCCCC2)c1	-3	-5	11	1	11	15481	-0.6
Cc1nn(C(C)C(=O)N2CCc3ccccc3C2)c(=O)c2cc3occc3n12 (stereo not drawn)	-2	-22	-4	5	-2	2529	-14
COc1ccccc1NC(=O)c1cccnc1	1	-8	5	11	8	3025	7.3
CN(C)S(=O)(=O)Oc1ccsc1C(=O)Nc1ccc(C(F)(F)F)cc1	-16	-6	3	0	4	2237	-5.5
COc1ccc2c(c1)NP(=S)(c1ccccc1)N2C (stereo not drawn)	1	-11	.	6	12	3555	3.1
Cc1ccc(SCC(=O)Nc2ccc(S(=O)(=O)Nc3nccs3)cc2)cc1	-2	4	4	16	18	2045	1.7
O=C(COc1ccc(Br)cc1)Nc1ccc(N2CCOCC2)cc1N1CCOCC1	-1	-4	.	7	9	3576	3.5
O=C(NN=Cc1ccco1)c1cc(-c2ccc3ccccc3c2)n[nH]1	-19	.	.	9	13	.	3.5

Molecules from the list above that have an aryl methoxy group:
mol	ugtP null kill	PrP 5UTR inh	BJeLR viability	Mtb hypoxia rep	Mtb hypoxia rep growth	Bead autofluor	RN4220 kill
CCN(CC(=O)Nc1ccc(OC)c(OC)c1)CC(=O)Nc1ccccc1C(F)(F)F	13	-27	4	5	4	3270	0.3
COc1ccc(OC)c(NC(=O)c2ccc3c(c2)OCO3)c1	9	2	-11	3	9	3482	7.3
COc1ccccc1NC(=O)c1cccnc1	1	-8	5	11	8	3025	7.3
COc1ccc2c(c1)NP(=S)(c1ccccc1)N2C (stereo not drawn)	1	-11	.	6	12	3555	3.1

Additional compounds:
mol	ugtP null kill	PrP 5UTR inh	BJeLR viability	Mtb hypoxia rep	Mtb hypoxia rep growth	Bead autofluor	RN4220 kill
Cc1[nH]c2ccccc2c1C(=O)CN1CCCC(C)C1 (stereo not drawn)	16	-2	-11	14	4	3775	-1.9
O=C(NCCN1CCOCC1)c1cn(-c2ccccc2)nc1-c1cccs1	-3	3	2	5	2	4425	0.8
CN(C)CCOc1ccc2c(c1)Sc1ccccc1CC2=O	3	-15	-6	-1	3	6889	5.3
NC(N)=NC1=NC(=O)/C(=C/c2ccccc2-n2cccn2)S1	4	-23	1	11	3	4138	1.3
Cc1ccc(-c2c(C(=O)NN=Cc3sccc3C)nnn2-c2nonc2N)cc1	84	.	.	-1	6	.	94*
Cc1ccc(NC(=O)Cn2nnc(C(=O)NCc3cccs3)c2N)cc1	1	0	3	1	-2	9156	4.1
Cc1ccc2cc(C)c(N3CCN(c4ccc(F)cc4)CC3)nc2c1	-12	-14	1	6	5	3842	2.1
COc1cccc(NC(=O)OCCN2CCN(Cc3ccccc3)CCC2=O)c1	1	-19	-5	9	8	3540	5.3

Other entries follow.
mol	ugtP null kill	PrP 5UTR inh	BJeLR viability	Mtb hypoxia rep	Mtb hypoxia rep growth	Bead autofluor	RN4220 kill
CCCc1cc(=O)[nH]c(SCC(=O)c2c(N)n(CC(C)C)c(=O)n(C)c2=O)n1	-4	6	63*	-8	9	6201	-1.8
O=C(COc1cccc2c1CCN(Cc1ccc(Cl)cc1)C2=O)N1CCOCC1	8	-8	-2	13	12	4742	10
C=CCNC(=O)Nc1ccc(Cl)cn1	0	-19	-6	-1	2	2490	5.6
Cn1cccc1C=NN1CCN(Cc2ccccc2Cl)CC1	6	.	.	4	-7	.	-0.5
CC1CCCN(C(=O)C2CCN(S(=O)(=O)c3ccccc3)CC2)C1 (stereo not drawn)	5	-9	.	7	4	2861	1.7
CC(C)CCNC(=O)CN(C(=O)CCC(=O)Nc1ccccn1)c1ccc2c(c1)OCO2	1	-2	8	.	.	4812	3.1
CC(C)CCNC(=O)c1onc(CSc2ccc(F)c(F)c2)c1C(=O)NCCC(C)C	-46	-13	1	9	9	4343	-7.9
Cc1ccc([N+](=O)[O-])cc1S(=O)(=O)Nc1ccc(OCC(=O)N2CCOCC2)cc1	7	-12	-1	2	6	5312	0.1

Whole records, looked up by structure. Order of screens: ugtP null kill | PrP 5UTR inh | BJeLR viability | Mtb hypoxia rep | Mtb hypoxia rep growth | Bead autofluor | RN4220 kill
Entry for Cn1cccc1C=NN1CCN(Cc2ccccc2Cl)CC1 = 6 | . | . | 4 | -7 | . | -0.5
Entry for Cc1ccc([N+](=O)[O-])cc1S(=O)(=O)Nc1ccc(OCC(=O)N2CCOCC2)cc1 = 7 | -12 | -1 | 2 | 6 | 5312 | 0.1
Entry for CC(C)CCNC(=O)c1onc(CSc2ccc(F)c(F)c2)c1C(=O)NCCC(C)C = -46 | -13 | 1 | 9 | 9 | 4343 | -7.9
Entry for CC1CCCN(C(=O)C2CCN(S(=O)(=O)c3ccccc3)CC2)C1 (stereo not drawn) = 5 | -9 | . | 7 | 4 | 2861 | 1.7

Next section
mol	ugtP null kill	PrP 5UTR inh	BJeLR viability	Mtb hypoxia rep	Mtb hypoxia rep growth	Bead autofluor	RN4220 kill
Cc1c(C(=O)OCCOc2ccc(Br)cc2)sc(=S)n1C	-2	-11	-1	1	3	2218	7.7
O=C1Nc2ncccc2OC1CCO (stereo not drawn)	3	-24	-6	.	.	3117	1.9
CC(C)(C)[C@]1(O)CC2OC(=O)C[C@@]23C(=O)OC2OC(=O)C(O)[C@]213 (stereo partly drawn)	29	.	.	2	1	.	27
CCOc1ccccc1N(C(=O)Cn1nnnc1-c1ccc(C)o1)C(CC)C(=O)NC(C)(C)C (stereo not drawn)	4	-19	-4	6	8	3364	6.4
CCCOc1ccc(C(=O)NC(=S)N2C[C@H]3C[C@H](C2)c2cccc(=O)n2C3)cc1	-10	-24	-4	.	.	4090	3.2
O=C(O)c1cc(NC(=O)c2ccc3c(c2)C(=O)N(Cc2cccnc2)C3=O)cc(C(=O)O)c1	7	-16	4	5	5	6636	2.8
COc1ccc(CNC(=O)CN(C(=O)c2csnn2)c2cccc(C(C)=O)c2)cc1	3	-7	-3	-5	5	3840	1.2
CS(=O)(=O)Nc1ccc(C(=O)CSc2nnc(C3CC3)n2C2CC2)cc1	1	-17	.	9	-5	6068	2.6

Going on with the list.
Compound	ugtP null kill	PrP 5UTR inh	BJeLR viability	Mtb hypoxia rep	Mtb hypoxia rep growth	Bead autofluor	RN4220 kill
CC(CCC(=O)O)C1CC[C@H]2C3CCC4CC(=O)CCC4(C)[C@H]3CC(=O)C12C (stereo partly drawn)	13	-10	-10	1	9	3343	12
O=C(COC(=O)Cc1ccc(S(=O)(=O)N2CCCCC2)s1)Nc1ccc2c(c1)OCO2	0	-5	-5	.	.	4071	2.8
CN1C(=O)C2C(C=Cc3ccccc3)N3C(=O)CN(CCO)C(=O)[C@@]3(C)C2C1=O (stereo partly drawn)	-1	.	.	6	4	.	4.9
CCc1ccc2[nH]c(=O)c(CN(Cc3ccco3)C(=S)NCC3CCCO3)cc2c1 (stereo not drawn)	-4	0	-1	-2	-2	4581	2.7
CCc1ccc(CNCc2cccnc2)cc1	12	-18	-5	.	.	4700	2.5
O=C(NCCc1ccccc1)c1ccco1	-3	-66	-9	18	10	3150	-8.8
Cc1ccc(SCC(=O)OCC(=O)NC(C)c2ccc(F)cc2)cc1 (stereo not drawn)	6	-5	.	5	1	2592	3.5
CCCCCC(=O)NNC(=O)c1c(O)c2ccccc2n(CC)c1=O	-7	-4	-1	5	5	1924	24
COC(=O)c1ccc(C(C(=O)NC2CCCCC2)N(CCN2CCOCC2)C(=O)Cc2cccs2)cc1 (stereo not drawn)	19	-39	0	-2	7	3131	3.1
CC(=O)Nc1ccc(NC(=O)C(C)OC(=O)C2CCC2)cc1 (stereo not drawn)	0	-14	-8	6	4	7749	0.8
CCOc1cc(/C=C2/C(=O)ON=C2C)ccc1OCc1ccccc1F	14	-34	7	-5	1	7203	6.8
CSCC[C@H](NC(=O)OC(C)(C)C)C(=O)NN=Cc1cc2ccc(C)cc2nc1Cl	3	.	.	-2	-6	.	-2.0
CCOC(=O)C(CC)C(C)=NNC(=O)c1ccccc1O (stereo not drawn)	3	.	.	4	6	.	12
CCCCOc1ccccc1C1C(C(N)=O)=C(C)Nc2nnnn21 (stereo not drawn)	-4	-138	-5	-14	-26	6907	3.5
CN(N=Cc1cc([N+](=O)[O-])ccc1O)c1ccccc1	-2	.	.	2	4	.	18
Cc1nnc2n(-c3ccccc3)c(=O)c3c4c(sc3n12)CCCC4	5	-4	-10	3	18	2655	0.5
CCC(C)Sc1ccc(C2C3C(=O)N(C)C(=O)C3[C@]3(C(=O)OC)CCCN23)cc1 (stereo partly drawn)	-1	.	.	16	11	.	6.7
CCCCNC(=O)N(C)c1nncnc1C(=O)NC	2	-7	3	.	.	3509	-0.4
Fc1ccc(CSc2ncnc3c2oc2ccccc23)cc1	-5	-19	.	12	7	1890	8.4
COc1ccc(C)cc1NC(=O)CCS(=O)(=O)c1cccc2nonc12	2	-22	-1	.	.	4043	2.0
Cc1cc(C)c2sc(N(CCCN(C)C)C(=O)c3ccc(S(=O)(=O)N(C)C4CCCCC4)cc3)nc2c1	-16	-22	11	38*	22*	.	-1.4
Cc1cccc(NC(=O)c2ccc([N+](=O)[O-])o2)c1	22	-15	8	6	30	4285	35
COc1cccc2cc(C(C)N(CCCN3CCOCC3)C(=S)Nc3cccc(C)c3)oc12 (stereo not drawn)	.	-36	6	.	.	3485	.
O=C(O)CC/C(=N/NC(=O)CNC(=O)C(c1ccccc1)c1ccccc1)c1ccccc1	.	-10	-3	.	.	?	.
Cc1ccc(C)c(S(=O)(=O)N2CCCOC2CNC(=O)C(=O)NCc2ccc3c(c2)OCO3)c1 (stereo not drawn)	-4	-1	4	-14	-11	6440	0.6

Next section:
Compound	ugtP null kill	PrP 5UTR inh	BJeLR viability	Mtb hypoxia rep	Mtb hypoxia rep growth	Bead autofluor	RN4220 kill
Clc1ccc(NC2(c3nnnn3C3CCCCC3)CCCCC2)cc1	-14	-28	-2	-2	7	3627	10
O=C(Nc1ccn(Cc2ccccc2F)n1)c1ccc(COc2ccc(Br)cc2)cc1	-6	-14	4	4	4	24596*	26
CCCCC(=O)NC1(C(F)(F)F)C(=O)Nc2c1c(=O)n(C)c(=O)n2C (stereo not drawn)	4	-16	4	4	9	2592	7.0
O=C1c2nc3cc(-c4ccco4)[nH]n3c(=O)c2CN1C1CCCCC1	7	.	-8	9	12	3803	2.9
CC(C)OCCCNC(=S)NNC(=O)C(c1ccccc1)c1ccccc1	9	-17	-1	13	6	3807	-1.5
Nn1c(SCC(=O)NC2CCCCC2)nnc1-c1ccccc1F	8	-9	.	4	8	6171	7.6
Cc1ccc(C)c(OCC(=O)NCCN(C)C)c1	4	-41	2	.	.	2910	1.1
CC(C)(c1ccccc1)c1ccc(OCC(O)CN2CCCC2)cc1 (stereo not drawn)	2	-34	-10	15	5	3947	0.7
